# Screens (PubChem)
# ID4 SMM – binders of human ID4 protein, primary screen, biochemical, small molecule microarray, single point; DNA-binding protein inhibitor ID-4 (Homo sapiens), P47928; Flag-ID4 binding, fluorescence F/B; calls only; hit rate 1.2% among 31,000; AID 624137, 2012;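 active = spot signal over background at p below 0.07 in all four prints; compounds were printed on slides so no solution concentration is given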;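 note: a binder raises fluorescence above local background on the spot; about 2 pmol printed per array spot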
# Target sequence (P47928 whole entry, looked up): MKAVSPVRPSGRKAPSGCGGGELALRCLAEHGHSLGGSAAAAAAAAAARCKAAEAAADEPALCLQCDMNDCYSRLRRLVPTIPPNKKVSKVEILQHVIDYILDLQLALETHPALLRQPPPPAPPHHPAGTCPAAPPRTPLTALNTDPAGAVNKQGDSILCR
# Calls only; i = inactive.
SMILES,ID4 SMM
COc1ccc(-n2c(SCC(=O)Nc3cc(NC(C)=O)ccc3OC)nc3ccccc3c2=O)cc1,i
CO[C@H](CN(C)S(=O)(=O)c1ccc(C)cc1)[C@H](C)CN(Cc1ccccc1Cl)[C@@H](C)CO,i
O=C(O)c1c(Br)c(Br)c(Br)c(Br)c1-c1c2ccc(=O)cc-2oc2cc(O)ccc12,i
COc1cccc(NC(=O)CCN2C(=O)c3ccccc3S2(=O)=O)c1,i
COc1ccc([N+](=O)[O-])cc1NC(=O)CN(C)S(=O)(=O)c1ccc(Cl)cc1,i
Cc1ccc(OCC(=O)Nc2ncccn2)c(C)c1,i
O=c1n(-c2ccc(F)cc2)nc2n1CCCN2,i
CCc1nc2sc3c(c2c2nnc(SCC(=O)OC)n12)CCC3,i
O=C(CN1CCc2ccccc2C1)Nc1ccc(S(=O)(=O)N2CCOCC2)cc1,i
Cc1cc(Br)ccc1NC(=O)CSc1nnc(-c2ccccc2O)n1-c1ccccc1,i
O=C(C[C@@H]1CC[C@H](NC(=O)C2CCC2)[C@@H](CO)O1)NC1CCC1,i
Cc1ccc(S(=O)(=O)c2c(C)nn(C(C)(C)C)c2OC(=O)c2ccccc2Br)cc1,i
O=C(CSc1nnnn1-c1ccccc1)Nc1nsc(-c2ccccc2)n1,i
C=CCNC(=O)[C@@H]1[C@H]2C(=O)O[C@H](c3ccccc3)[C@H](c3ccccc3)N2[C@H](c2ccc(OCCO)cc2)[C@@]12C(=O)Nc1ccc(C#Cc3ccc(OC)cc3)cc12,i
O=C(N[C@@H]1CC[C@H](CC(=O)N2CCOCC2)O[C@H]1CO)c1ccccn1,i
CC(C)(C)c1ccc(S(=O)(=O)N2CCC(O)(c3ccc(Cl)cc3)CC2)cc1,i
O=C(C[C@H]1CC[C@@H](NC(=O)CN2CCOCC2)[C@@H](CO)O1)NCCc1ccncc1,i
O=C(C[C@H]1C[C@H]2c3cc(NC(=O)C4CCC4)ccc3O[C@H]2[C@H](CO)O1)NCC(F)(F)F,i
CC1(C)Cc2cccc(C(=O)N3CCC(c4c[nH]c5ccccc45)CC3)c2O1,i
COC(=O)N(C)C[C@@H]1OCc2ccccc2-c2c(n(C)c3ccccc23)C(=O)N([C@@H](C)CO)C[C@H]1C,i
CC(=O)c1cccc(NC(=O)Cc2ccccc2[N+](=O)[O-])c1,i
Cc1ccc(S(=O)(=O)N2CCN(CC(O)COc3ccc4ccccc4c3)CC2)cc1 (stereo not drawn),i
CC(C)(C)c1csc(-c2sccc2CS(=O)(=O)c2ccc(Cl)cc2)n1,i
C[C@H](NC(=O)C[C@@H]1C=C[C@H](NC(=O)C2CCC2)[C@H](CO)O1)c1ccccc1,i
C[C@H]1CN([C@@H](C)CO)C(=O)c2cc(-c3cccc(F)c3)cnc2O[C@H]1CN(C)Cc1ccccn1,i
C[C@@H]1CN([C@@H](C)CO)S(=O)(=O)c2ccc(-c3ccccc3)cc2O[C@H]1CN(C)CC1CCCC1,i
O=C(C[C@H]1CC[C@H](NC(=O)Nc2cc(F)ccc2F)[C@H](CO)O1)NCc1ccncn1,i
COc1ccc(NC(=O)CSc2nnc(-c3ccc(Br)cc3)n2C)cc1,i
COc1ccc(OC)c(-n2c(CN3CCC(C(N)=O)CC3)nc3ccccc3c2=O)c1,i
C[C@@H]1CN([C@@H](C)CO)C(=O)c2cc(-c3cccc(C(=O)N(C)C)c3)cnc2O[C@@H]1CN(C)S(=O)(=O)c1ccc(F)cc1,i
Cc1cc(I)ccc1NC(=O)CN(c1ccc(F)c(Cl)c1)S(C)(=O)=O,i
CS(=O)(=O)N(CC(=O)Nc1ccc(F)cc1)c1cccc2ccccc12,i
Cc1sc2ncn(CC(=O)Nc3cc(C(F)(F)F)ccc3Cl)c(=O)c2c1-c1ccccc1,i
Cc1ccc(S(=O)(=O)NN2C(=O)S/C(=C/c3ccccc3)C2=S)cc1,i
O=C(C[C@@H]1CC[C@H](NC(=O)C2CC2)[C@@H](CO)O1)NCc1ccccc1Cl,i
Cc1ccc(N(C(C)C(=O)Nc2ccc(F)c(Cl)c2)S(C)(=O)=O)cc1C (stereo not drawn),i
Cc1ccc(-c2nc3c(c(SCC(=O)Nc4cccc(C(F)(F)F)c4)n2)COC(C)(C)C3)cc1,i
C[C@H]1CN([C@@H](C)CO)S(=O)(=O)c2ccc(C3=CCCCC3)cc2O[C@@H]1CN(C)C(=O)Nc1ccc2c(c1)OCO2,i
COC(=O)C1=CC(C(=O)c2ccccc2)=NN(c2ccccc2)C1C(=O)OC (stereo not drawn),i
CC(=O)c1ccc(NC(=O)CSc2n[nH]c(-c3ccncc3)n2)cc1,i

# The closing 2 compounds of the section before lead into the next.
SMILES,ID4 SMM
COC(=O)C1=CC(C(=O)c2ccccc2)=NN(c2ccccc2)C1C(=O)OC (stereo not drawn),i
CC(=O)c1ccc(NC(=O)CSc2n[nH]c(-c3ccncc3)n2)cc1,i
COc1ccc(OCC(=O)Nc2cc(-c3nnc(OC)c4ccccc34)ccc2N2CCCCC2)cc1,i
CCn1c(SCC(=O)Nc2cccc(F)c2)nnc1-c1cc2cc(Br)ccc2o1,i
COc1ccc(C)cc1N(CC(=O)O)S(=O)(=O)c1ccc(C)cc1,i
C[C@@H]1CN([C@H](C)CO)C(=O)c2cc(C#Cc3ccccc3F)cnc2O[C@H]1CN(C)C(=O)C1CC1,i
CN(C)c1ccc2c(c1)[C@@H]1C[C@@H](CC(=O)NCc3ccccn3)O[C@H](CO)[C@@H]1O2,i
C[C@@H]1CN([C@@H](C)CO)S(=O)(=O)c2ccc(-c3ccccc3F)cc2O[C@@H]1CN(C)CC1CC1,i
COC(=O)c1c(NC(=S)Nc2ccc([N+](=O)[O-])cc2OC)sc(C)c1C,i
Cc1c(C2CCN(CCc3ccccc3)CC2)noc1-c1ccc(Cl)cc1,i
COc1ccc(C)cc1S(=O)(=O)N1CCC(C(=O)Nc2cc(Cl)ccc2Cl)CC1,i
COc1ccc(C(=O)NCc2c(C)oc(C)c2C(=O)O)cc1,i
CC[C@H](CO)Nc1nc(NCc2ccccc2)c2ncn(C(C)C)c2n1,i
COc1cccc(NC(=O)N(C)C[C@H]2Oc3cc(C#CC4(O)CCCC4)ccc3S(=O)(=O)N([C@H](C)CO)C[C@H]2C)c1,i
Nc1nnc(SCC(=O)N2CCc3ccccc32)n1-c1ccccc1,i
COc1cccc(-n2nnnc2SCC(=O)Nc2c(C)cc(C)cc2C)c1,i
CC(=O)Nc1ccc(OCC(O)Cn2nc(C)c(C(C)=O)c2C)cc1 (stereo not drawn),i
COc1ccc(NC(=O)Nc2ccc3c(c2)[C@@H]2C[C@H](CC(=O)N4CCN(C)CC4)O[C@@H](CO)[C@@H]2O3)cc1,i
CN(C)c1ccc2c(c1)[C@@H]1C[C@@H](CC(=O)NCc3ccc(Oc4ccccc4)cc3)O[C@H](CO)[C@@H]1O2,i
CCOC(=O)c1c(NC(=O)CN2C(=O)c3ccccc3C2=O)sc(C)c1C,i
C[C@H]1CN([C@@H](C)CO)C(=O)c2cc(C3=CCCCC3)cnc2O[C@H]1CN(C)Cc1ccccn1,i
COc1ccc(-c2nnc(SCC(N)=O)n2-c2cccc(C(F)(F)F)c2)cc1OC,i

# 7 of the compounds above, tab-delimited.
SMILES	ID4 SMM
CN(C)c1ccc2c(c1)[C@@H]1C[C@@H](CC(=O)NCc3ccccn3)O[C@H](CO)[C@@H]1O2	i
CCOC(=O)c1c(NC(=O)CN2C(=O)c3ccccc3C2=O)sc(C)c1C	i
CN(C)c1ccc2c(c1)[C@@H]1C[C@@H](CC(=O)NCc3ccc(Oc4ccccc4)cc3)O[C@H](CO)[C@@H]1O2	i
COc1ccc(-c2nnc(SCC(N)=O)n2-c2cccc(C(F)(F)F)c2)cc1OC	i
C[C@H]1CN([C@@H](C)CO)C(=O)c2cc(C3=CCCCC3)cnc2O[C@H]1CN(C)Cc1ccccn1	i
C[C@@H]1CN([C@@H](C)CO)S(=O)(=O)c2ccc(-c3ccccc3F)cc2O[C@@H]1CN(C)CC1CC1	i
COC(=O)c1c(NC(=S)Nc2ccc([N+](=O)[O-])cc2OC)sc(C)c1C	i

# Next part.
SMILES,ID4 SMM
CCn1c(NCc2cccc(OC)c2OC)nc2ccccc21,i
COc1cc(C)c(Cl)cc1S(=O)(=O)NCc1ccco1,i
C[C@@H](NC(=O)C[C@H]1CC[C@H](NC(=O)C2CC2)[C@H](CO)O1)c1ccccc1,i
Cc1cc2ccccc2n2c(SCC(=O)Nc3cccc(C(F)(F)F)c3)nnc12,i
Cc1cc(Br)c2c(c1)C(O)(CC(=O)c1ccco1)C(=O)N2C (stereo not drawn),i
Cc1cccc(C)c1Nc1c(-c2ccsc2)nc2sccn12,i
O=S(=O)(c1ccccc1)c1nc(-c2cccs2)oc1NCC1CCCO1 (stereo not drawn),i
CN(CC(=O)Nc1cccc2c1CCCC2)S(=O)(=O)c1ccc(Cl)cc1,i
Cc1ccc(C2=CC(c3ccccc3)SC(N)=N2)cc1 (stereo not drawn),i
Cn1c(SCCSc2nnc(-c3ccccc3)n2C)nnc1-c1ccccc1,i
COc1ccc([N+](=O)[O-])cc1NC(=O)c1ccccc1N(C)S(=O)(=O)c1ccc(C)cc1,i
COc1ccc(Cl)cc1NC(=O)Cn1cnc2c1c(=O)n(C)c(=O)n2C,i
COc1ccc(-c2cc(=O)[nH]c(SCc3nc4ccccc4c(=O)[nH]3)n2)cc1,i
O=C(CCN1CCCCC1)N[C@H]1C=C[C@@H](CC(=O)N2CCC(Cc3ccccc3)CC2)O[C@@H]1CO,i
CO[C@@H]1CN(C)C(=O)c2ccc(NC(=O)NC3CCCCC3)cc2OC[C@@H](C)N(C)C[C@H]1C,i
CCn1c(SCC(=O)Nc2ccc(C)c(F)c2)nnc1-c1cccc(Cl)c1,i
Cc1ccc(NC(=O)c2cccc(S(=O)(=O)Nc3cccc(C(=O)O)c3)c2)cc1,i
Cc1ccc(NC(=O)CSc2nnc(-c3ccc(Cl)c(Cl)c3)n2C)cc1C,i
CCOC(=O)NC(=O)CSc1nc2ccccc2s1,i
CO[C@H](CN(C)C(=O)c1ccccc1F)[C@H](C)CN([C@@H](C)CO)S(=O)(=O)c1ccc(Cl)cc1,i
Cc1cc2nc(SCc3ccccc3C#N)[nH]c2cc1C,i
Cc1nn(C(C)(C)C)c(OC(=O)c2cccc(Br)c2)c1S(=O)(=O)c1ccccc1,i
COc1ccccc1NC(=O)C1=C(C)Nc2nnnn2C1c1ccccc1OCc1ccccc1 (stereo not drawn),i
Cc1ccc(C)c(NC(=O)c2ccc(OCC(=O)Nc3ccc(Cl)c(Cl)c3)cc2)c1,i
Cn1c(SCC(=O)Nc2ccc(Oc3ccccc3)cc2)nnc1-c1ccncc1,i
CCn1c(SCC(=O)Nc2ccc(F)c(Cl)c2)nnc1-c1ccc(Cl)cc1Cl,i
CCOc1ccccc1NC(=O)CSc1c(C)n[nH]c1C,i
COc1ccc2c(c1)[C@@]1(C)CCC(=O)C[C@H]1CC2,i
CC(C)NC(=O)N(C)C[C@H]1Oc2ncc(C#CC3CC3)cc2C(=O)N([C@@H](C)CO)C[C@@H]1C,i
C/C=C/c1ccc2c(c1)O[C@H](CN(C)Cc1ccccn1)[C@H](C)CN([C@H](C)CO)S2(=O)=O,i
O=C(C[C@@H]1C=C[C@@H](NC(=O)C2CC2)[C@@H](CO)O1)NCc1ccccc1Cl,i
C/C=C/c1ccc2c(c1)O[C@@H](CN(C)C)[C@H](C)CN([C@H](C)CO)S2(=O)=O,i
Cc1cc(C)cc(N2C(=O)CC(SCC(=O)Nc3ccc(Cl)cc3)C2=O)c1 (stereo not drawn),i
O=C1CCC(=O)N1CCOP1(=O)COc2ccccc2OC1,i
C[C@H]1CN([C@@H](C)CO)S(=O)(=O)c2ccc(C3=CCCC3)cc2O[C@H]1CN(C)CC1CC1,i
CCC(=O)N[C@@H]1C=C[C@H](CC(=O)NCc2cc(F)cc(F)c2)O[C@@H]1CO,i
Cc1noc(C)c1S(=O)(=O)N(C)C[C@H]1OCc2ccccc2-c2c(n(C)c3ccccc23)C(=O)N([C@@H](C)CO)C[C@H]1C,i
O=S(=O)(NCc1cccnc1)c1ccc(C2CCCCC2)cc1,i
COc1ccc(NC(=O)CC2NC(=O)NC2=O)cc1 (stereo not drawn),i
CN(C)C(=O)C[C@H]1CC[C@H](NC(=O)Nc2cccc(F)c2)[C@@H](CO)O1,i
O=C(C[C@@H]1CC[C@H](NC(=O)CC2CC2)[C@H](CO)O1)NCc1ccc(-c2ccccc2)cc1,i
COCCNC(=O)C[C@H]1C[C@@H]2c3cc(NS(=O)(=O)c4ccccc4)ccc3O[C@@H]2[C@@H](CO)O1,i
Cc1ccc(-c2csc3ncnc(SCC(=O)Nc4ccc(S(N)(=O)=O)cc4)c23)cc1,i
CCC(=O)c1cn(CC(=O)Nc2cccc(C(F)(F)F)c2)c2ccccc12,i
CCOC(=O)c1c(NC(=O)C2(C)Cc3ccccc3C(=O)O2)sc2c1CCCC2 (stereo not drawn),i
O=C(CSc1nc2sc3c(c2c(=O)[nH]1)CCCC3)N(c1ccccc1)c1ccccc1,i
C/C=C/c1ccc2c(c1)O[C@@H](CN(C)CC1CCCC1)[C@H](C)CN([C@H](C)CO)S2(=O)=O,i
CN(C)CC(=O)N[C@@H]1C=C[C@H](CC(=O)NCc2ccccc2F)O[C@H]1CO,i
COc1cc(-c2nnc(SCC(=O)c3ccc(-c4ccccc4)cc3)n2C)cc(OC)c1OC,i
O=C(CC1(O)C(=O)N(Cc2ccccc2)c2ccc(Br)cc21)c1ccccc1[N+](=O)[O-] (stereo not drawn),i
Cc1c(Cl)cccc1NC(=O)CSc1nccc(=O)[nH]1,i
NC(=O)COc1ccc(S(=O)(=O)N2CCOCC2)cc1,i
CCCNC(=O)N[C@@H]1CC[C@@H](CC(=O)NC2CCC2)O[C@H]1CO,i

# Structures listed so far with a nitro group on carbon, in the order listed:
SMILES,ID4 SMM
COc1ccc([N+](=O)[O-])cc1NC(=O)CN(C)S(=O)(=O)c1ccc(Cl)cc1,i
CC(=O)c1cccc(NC(=O)Cc2ccccc2[N+](=O)[O-])c1,i
COC(=O)c1c(NC(=S)Nc2ccc([N+](=O)[O-])cc2OC)sc(C)c1C,i
COc1ccc([N+](=O)[O-])cc1NC(=O)c1ccccc1N(C)S(=O)(=O)c1ccc(C)cc1,i
O=C(CC1(O)C(=O)N(Cc2ccccc2)c2ccc(Br)cc21)c1ccccc1[N+](=O)[O-] (stereo not drawn),i

# These rows are one share of the data, so the mix of outcomes need not match the whole.
